Ecoli rRNA inh: reduced GFP signal of wild-type E. coli, primary screen, bacterial rRNA inhibitor project, GFP/RFP fluorescence, OD600, single point | E. coli WT GFP vs humanized-ribosome RFP mutants, 24 h; hits give low values; DMSO median 0, no signal -100 | actives 1.6% (n = 350,000) | GFP signal change (wild-type ribosome), % (concentration not given with the values) | AID 720706, 2013;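 active = significant combined selectivity score with lowered wild-type GFP, culture density cut under 30%, mutant RFP and density less affected; inactive = any of these conditions unmet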; note: one replicate is shown; some compounds called inactive have numbers as strong as hits
AF4-AF9 inh: inhibitors of AF4 peptide binding to AF9, primary screen, biochemical, AlphaScreen, biotin-AF4 peptide, FLAG-AF9, single point. AID 651704, 2012. Protein AF-9 (Homo sapiens), P42568. inhibition, % at 10 µM. actives 0.47% (n = 350,000);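 active = every replicate reaching a set inhibition limit, whatever the replicate mean, cut at about 25% in these data; inconclusive = mean inhibition reaches that limit but some replicates miss it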;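 note: 0% = plate neutral control median and 100% = total signal loss; the record names both 10 and 1 µM as test concentration; the first replicate is given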
Target sequence (P42568 whole entry, looked up): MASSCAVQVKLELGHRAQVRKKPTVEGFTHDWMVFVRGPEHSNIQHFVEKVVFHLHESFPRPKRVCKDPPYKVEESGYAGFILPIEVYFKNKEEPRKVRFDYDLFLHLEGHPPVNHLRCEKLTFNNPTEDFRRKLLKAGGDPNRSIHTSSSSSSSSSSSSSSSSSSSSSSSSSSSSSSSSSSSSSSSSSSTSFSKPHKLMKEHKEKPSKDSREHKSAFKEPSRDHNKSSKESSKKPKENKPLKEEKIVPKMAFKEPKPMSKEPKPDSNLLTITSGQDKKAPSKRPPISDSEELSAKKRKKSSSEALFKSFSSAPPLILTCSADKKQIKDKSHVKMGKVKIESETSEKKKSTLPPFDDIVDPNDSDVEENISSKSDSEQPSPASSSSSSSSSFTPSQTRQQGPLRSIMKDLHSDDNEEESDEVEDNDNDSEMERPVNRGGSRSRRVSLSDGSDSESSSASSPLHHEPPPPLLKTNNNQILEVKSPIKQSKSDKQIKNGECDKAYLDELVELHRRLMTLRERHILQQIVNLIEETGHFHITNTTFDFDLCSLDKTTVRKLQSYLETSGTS
Vif A3G: inhibitors of Vif binding to APOBEC3G peptide, primary screen, biochemical, TR-FRET, GST-Vif 1-94, biotin-A3G peptide, dose response retest (AID 1117319) | TR-FRET GST-Vif / biotin-A3G peptide binding; higher % means a stronger effect; test concentration not given here; strong numbers were not always called active | inhibition, %, or IC50 in µM where a hit was titrated | Virion infectivity factor (Human immunodeficiency virus type 1 group M subtype B (isolate … | actives 0.57% (n = 260,000);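 active = above the screen mean plus three standard deviations and confirmed in dose response; inconclusive = results disagree or hit not tested in dose response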;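 note: Vif residues 1-94 fused to GST binding biotinylated APOBEC3G peptide 110-148; 0% = full assay without inhibitor and 100% = GST in place of GST-Vif; retest series ran down from 100 µM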
ALR inh: inhibitors of human ALR sulfhydryl oxidase, primary screen, biochemical, H2O2 detection, HRP-luminol luminescence, single point. FAD-linked sulfhydryl oxidase ALR (Homo sapiens), P55789. purified ALR, DTT oxidation. inhibition, % (no concentration beside the values). actives 3.8% (n = 290,000);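 active = mean and each replicate at 75% or more; inconclusive = only one of the two met; inactive = neither met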;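 note: stock transfer was 7.5 nL into about 7.5 µL; 0% = neutral wells and 100% = wells with inactivated enzyme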
Target sequence (P55789 whole entry, looked up): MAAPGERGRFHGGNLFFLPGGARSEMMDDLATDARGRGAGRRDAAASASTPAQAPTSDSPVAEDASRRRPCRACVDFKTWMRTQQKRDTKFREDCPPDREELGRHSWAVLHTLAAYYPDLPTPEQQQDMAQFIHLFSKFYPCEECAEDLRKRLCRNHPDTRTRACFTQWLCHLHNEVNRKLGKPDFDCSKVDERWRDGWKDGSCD
FGF22 binding: binders of human FGF22 protein, primary screen, FGF22 synaptogenesis inhibitor project, biophysical, thermal shift, single point; AID 651658, 2012; recombinant FGF22 thermal shift, SYPRO orange fluorescence; percent of sucrose octasulfate shift, DMSO zero; calls only at 9.99 µM; actives 1.5% (n = 340,000);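 active = melting point raised past a set limit in the mean and every replicate; inconclusive = no clear call; three in four hits are not shown here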
Target sequence (Q9HCT0 whole entry, looked up): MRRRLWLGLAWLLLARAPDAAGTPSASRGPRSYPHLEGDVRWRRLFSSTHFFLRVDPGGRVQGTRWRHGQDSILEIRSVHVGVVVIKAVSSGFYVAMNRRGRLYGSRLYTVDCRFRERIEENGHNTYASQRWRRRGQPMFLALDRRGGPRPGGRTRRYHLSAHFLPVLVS
E coli growth: E. coli growth inhibition, primary screen, OD600; Escherichia coli growth, 23 h; hits give low values; OD600 absorbance (test concentration not listed); actives 0.21% (n = 330,000);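 active = OD600 absorbance below the run mean of sample wells minus 3.6 SD, in any replicate, cut at about 0.56 in these data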;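 note: stock transfer was 300 nL into about 60 µL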
HNF4A DNA FP: change in binding of human HNF4A to DNA, primary screen, biochemical, fluorescence polarization, FITC-DNA; activity change, % at 10 µM; Hepatocyte nuclear factor 4-alpha (Homo sapiens), P41235; 1 h; AID 1224865, 2016; actives 0.3% (n = 360,000); in the data active = activity change above about 30%, passing the limit was not always enough;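 note: controls were the assay level and a saturating level of protein; the project sought stronger binding though the title names inhibitors; some compounds called inactive have numbers as strong as hits; positive values seem to mean higher polarization but the record does not say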
Ecoli rRNA inh OD600: also measured in Ecoli rRNA inh; calls as there; OD600 change, %; measured here: OD600 growth;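 optical density of the mix in the first replicate; 0 = DMSO median and -100 = no signal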
Ecoli rRNA inh RFP: also measured in Ecoli rRNA inh; calls as there; RFP signal change, %; measured here: RFP humanized mutant strains;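 first replicate; 0 = DMSO median and -100 = no signal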
* marks the source's active call; other numbers are inactive results; i = inactive; ? = inconclusive; nt = no result given; + = active, no number; & = joins results of further samples.

SMILES	Ecoli rRNA inh	Ecoli rRNA inh OD600	Ecoli rRNA inh RFP	AF4-AF9 inh	Vif A3G	ALR inh	FGF22 binding	E coli growth	HNF4A DNA FP
Cc1nc(NCc2ccc(S(N)(=O)=O)cc2)c2c(C)c(C)sc2n1	10	6	-2.5	0.5	-33%	-5	i	0.7	2.0
CCOc1ccccc1NC(=O)CSc1nnc2ccc(-c3cccnc3)nn12	10	8	-1.2	4.5	nt	-10	i	0.64	1.0
O=C1Nc2ccccc2C12NCCc1c2[nH]c2ccccc12 (centres undefined)	2	0	-7.0	7.7	5%	17	i	0.65	0.3
Cc1ccc(C(NC(N)=O)c2ccccc2C)cc1 (centres undefined)	nt	nt	nt	nt	3%	-2	nt	0.65	0.4
COc1ccc(S(=O)(=O)Nc2ccc3c(c2)C(=O)N([C@@H](C)CO)C[C@@H](C)[C@@H](CN(C)S(=O)(=O)c2ccc(F)cc2)O3)cc1	-3	-14	1.3	0.6	nt	nt	i	nt	nt
C[C@H]1CN([C@@H](C)CO)C(=O)c2cc(NS(=O)(=O)c3ccccc3)ccc2O[C@H]1CN(C)C(=O)NC1CCCCC1	0	3	-2.4	-3.1	nt	nt	i	nt	nt
O=C1N/C(=C/c2cccn2-c2ccccc2)C(=O)N1Cc1ccccc1F	nt	nt	nt	nt	0%	-3	nt	nt	7.0
CCN1CCCc2cc(CN(CCN3CCOCC3)C(=S)Nc3cccc(Cl)c3)ccc21	3	-2	1.7	3.0	4%	nt	i	0.67	-1.0
O=C(NCCSCc1ccco1)Nc1cc(Cl)cc(Cl)c1	-51*	-18*	-13*	0.0	-6%	89*	i	0.55	-6.5
O=C(c1ccccn1)N1C[C@H]2[C@@H](c3ccccc31)[C@@H](CO)N2C(=O)c1ccccn1	-1	-2	-1.1	-0.3	nt	nt	+	nt	nt
C[C@H](CO)N1C[C@H](C)[C@@H](CN(C)C(=O)NC2CCCCC2)Oc2ccc(NC(=O)Cn3cnnn3)cc2C1=O	4&14	8&15	1.3&-1.4	-3.5&-8.5	nt	-2	i	nt	2.0
N#C/C(=C\c1ccc(Cl)c([N+](=O)[O-])c1)c1ccccn1	1	0	0.5	2.8	-9%	17	i	0.66	-2.2
C[C@@H]1CN([C@@H](C)CO)C(=O)c2cc(C#CCN(C)C)cnc2O[C@@H]1CN(C)C(=O)Cc1ccncc1	4	3	-0.2	-1.9	nt	nt	i	nt	nt
Cc1c(CCC(=O)N2CCC(C(=O)NCCCCCC(=O)O)CC2)c(=O)oc2cc3oc4c(c3cc12)CCCC4	-2	-13	-3.0	-16	-4%	-3	nt	0.66	1.5
CCOC(=O)C1CCN(C(=O)CSc2cc(=O)n(C)c3ccccc23)CC1	nt	nt	nt	nt	2%	-13	nt	0.71	-1.9

3 compounds from above, ordered by the number in AF4-AF9 inh, high to low:
smiles | AF4-AF9 inh
COc1ccc(S(=O)(=O)Nc2ccc3c(c2)C(=O)N([C@@H](C)CO)C[C@@H](C)[C@@H](CN(C)S(=O)(=O)c2ccc(F)cc2)O3)cc1 | 0.6
C[C@H]1CN([C@@H](C)CO)C(=O)c2cc(NS(=O)(=O)c3ccccc3)ccc2O[C@H]1CN(C)C(=O)NC1CCCCC1 | -3.1
Cc1c(CCC(=O)N2CCC(C(=O)NCCCCCC(=O)O)CC2)c(=O)oc2cc3oc4c(c3cc12)CCCC4 | -16

The results go on:
SMILES	Ecoli rRNA inh	Ecoli rRNA inh OD600	Ecoli rRNA inh RFP	AF4-AF9 inh	Vif A3G	ALR inh	FGF22 binding	E coli growth	HNF4A DNA FP
CN(C)c1ccc(C2CNC(c3ccc(Cl)c([N+](=O)[O-])c3)c3[nH]c4ccccc4c32)cc1 (centres undefined)	3	7	19	9.6	20%	-2	i	0.68	3.7
CCOC(=O)C1=C(c2ccccc2)c2ccccc2OC1C(=O)OCC (centres undefined)	-18	-26	-12	3.8	-10%	nt	i	0.71	-1.1
CC(=O)c1ccc(NS(=O)(=O)c2ccccc2)cc1	nt	nt	nt	nt	1%	-3	nt	0.64	2.7
COc1cccc(C#Cc2cnc3c(c2)C(=O)N([C@@H](C)CO)C[C@H](C)[C@H](CN(C)C)O3)c1	3	1	3.8	6.5	nt	nt	i	nt	nt
O=C(C[C@@H]1C=C[C@@H](NC(=O)C2CC2)[C@@H](CO)O1)NCc1ccncc1	0	3	1.2	0.7	nt	nt	i	nt	nt
CCCCC(CC)CNC(=O)c1ncn[nH]1 (centres undefined)	1	7	-1.9	0.6	-7%	-1	i	0.71	0.0
Cc1ccc2nc(SC(C)C(=O)NC3CCCC3)[nH]c2c1 (centres undefined)	0	-9	-2.2	1.0	-7%	-7	nt	0.71	3.1
CCCCc1nnc(NC(=O)CSc2nc(=O)cc(N)n2-c2ccccc2)s1	nt	nt	nt	nt	-6%	-63	nt	0.67	1.1
CCN(CC)CCCN1C(=O)C(=O)/C(=C(/O)c2c(C)nc3ccccn23)C1c1ccc(C)o1 (centres undefined)	7	5	-3.2	-8.0	nt	nt	i	0.67	-1.4
COc1ccc(CCNC(=O)COC(=O)C2CC2)cc1	9	1	0.6	1.4	nt	13	i	0.71	1.7
CC1CCN(c2nc3nonc3nc2Nc2ccc(F)cc2)CC1	-30	-47	-5.6	18	0%	nt	i	0.66	0.7
O=C1C=C(c2cccc3c2sc2ccccc23)C[C@@H](c2ccc(F)cc2)C1	4	-2	7.5	3.2	nt	-1	i	nt	8.8
C[C@@H](O)C#Cc1ccc([C@@H]2[C@@H](CO)N3CCCCN(CC4CC4)C[C@H]23)cc1	6	20	-2.5	6.3	nt	nt	i	nt	nt
Cc1noc(C)c1S(=O)(=O)Nc1ccc2c(c1)C(=O)N([C@@H](C)CO)C[C@H](C)[C@@H](CN(C)C(=O)Nc1ccc(C(F)(F)F)cc1)O2	-5	-9	1.9	-1.2	nt	nt	i	nt	nt
Cc1cc(C)nc(NS(=O)(=O)c2ccc(NC(=S)NC(=O)C(C)(C)C)cc2)n1	nt	nt	nt	nt	-4%	12	nt	0.73	2.5
CNC[C@H]1Oc2c(NS(=O)(=O)c3ccccc3)cccc2C(=O)N([C@@H](C)CO)C[C@@H]1C	4	2	0.1	-2.3	nt	nt	i	nt	nt
CC(C)NC(=O)N(C)C[C@H]1OCCCC[C@@H](C)Oc2ccc(NC(=O)c3ccncc3)cc2C(=O)N([C@H](C)CO)C[C@H]1C	0	10	-1.4	-1.6	nt	nt	i	nt	nt
COc1cc(N2C(=O)CC3(CCCC3)CC2=O)cc(OC)c1OC	5	4	-1.9	-19	1%	-10	i	0.69	2.5
C[C@H](CO)N1C[C@H](C)[C@H](CN(C)S(=O)(=O)c2ccc(C#N)cc2)OCc2ccccc2-c2ccccc2C1=O	-2	-4	2.8	-1.9	nt	nt	i	nt	nt
CCN(CC)C(=O)c1[nH]cnc1C(=O)Nc1ccc(C)cc1	1	11	4.0	2.1	nt	2	i	0.71	-1.3
Fc1ccc(Cn2nnnc2CN2CCN(C3CCCC3)CC2)cc1	nt	nt	nt	nt	8%	nt	nt	0.7	3.1
CCOc1ncccc1C(=O)Nc1nc(C(C)(C)C)cs1	-13	-15	-9.4	-11	1%	-2	i	0.69	3.1
Fc1ccc(CNC(=S)Nc2ccc(OC(F)F)cc2)cc1	-5	-6	-0.9	-1.8	-12%	2	i	0.58	1.8
O=C(CN(Cc1ccc(F)cc1)C(=O)C1CSC(=O)C1)NC1CCCCC1 (centres undefined)	nt	nt	nt	nt	1%	4	nt	0.71	0.8
COc1ccc(NC(=O)c2ccc(S(=O)(=O)N3CCCCC3)cc2)cc1OC	-5	-11	-1.1	-0.3	nt	nt	i	0.68	0.8
CCN(CC)C(=O)CSc1nc2ncccc2[nH]1	11	17	-6.7	9.9	3%	nt	i	0.65	1.4
C[C@@H]1CN([C@H](C)CO)C(=O)CCCn2cc(nn2)CO[C@H]1CN(C)Cc1cccc(O)c1	1	3	0.3	-0.3	nt	nt	i	nt	nt
O=C(CSc1nc2cc(C(F)(F)F)ccc2n1Cc1ccccc1)NC1CCS(=O)(=O)C1 (centres undefined)	nt	nt	nt	nt	?	-3	nt	0.66	-1.9
CCOC(=O)C(=O)Nc1ccc(S(=O)(=O)N2CCOCC2)cc1OC	nt	nt	nt	nt	3%	19	nt	0.71	2.6
O=c1[nH]c(=S)n(C2CCCCC2)c(O)c1C=NCCN1CCOCC1	7	-4	5.1	2.1	-2%	1	i	0.64	-1.4
CCc1cccc(NC(=O)CCc2nc(-c3cccs3)no2)c1	-5	0	-1.9	-4.9	-4%	35	i	0.69	-1.4
COC(=O)[C@]12CCCCC=C1N(Cc1ccccc1)C(=O)[C@H](CC(=O)NCc1cccs1)C2	nt	nt	nt	1.2	nt	nt	i	nt	-0.5
N/C(=N\OC(=O)c1ccncc1)c1cccc([N+](=O)[O-])c1	1	3	5.1	3.2	nt	-7	i	nt	2.6
Cn1c(N)c(C(=O)COC(=O)COc2cccc(Br)c2)c(=O)n(C)c1=O	-4	3	0.3	-1.0	nt	-5	i	0.67	-4.6
Cc1c(C(=O)Nc2nccs2)oc2ccccc12	2	2	2.2	-0.6	nt	nt	i	nt	5.4
CCOC(=O)/C=C/C(=O)NNC(=O)c1ccccc1Cl	0	1	-1.8	-6.6	3%	13	i	0.71	2.8
COC(=O)Nc1ccc2c(c1)N(C(=O)CCN1CCOCC1)c1ccccc1S2	nt	nt	nt	nt	-4%	-11	nt	0.68	2.9
O=C(COc1ccc2oc3c(c2c1)CCCC3)Nc1ccccn1	nt	nt	nt	nt	-8%	-9	nt	0.75	3.3
O=C(CCCC(=O)c1ccccc1)Nc1ccc(O)cc1	3	6	0.3	-1.8	9%	88*	i	0.64	0.1
CN(C)C(=O)c1ccc(-c2ccc3c(c2)[C@@H]2[C@@H](CCN2C(=O)C2CCCC2)[C@@H](CO)N3C)cc1	-2	1	0.3	3.7	nt	nt	i	nt	nt
CCOC(=O)c1c(NC(=S)NNS(=O)(=O)c2ccc(Br)cc2)sc2c1CCCCC2	12	0	-2.3	-0.6	nt	nt	i	0.73	-4.2
CNc1nc(SC)nc2ccccc12	6	8	-2.7	-1.9	nt	nt	i	0.6	-2.1
Cc1c(C(=O)OCC(=O)Nc2ccc3c(c2)OCO3)cccc1[N+](=O)[O-]	nt	nt	nt	nt	0%	-18	nt	0.76	1.9
N#CCCC12CCCCC1=Nc1ccccc12 (centres undefined)	nt	nt	nt	nt	1%	-14	nt	0.73	-2.1
COc1ccc(NC(=O)c2ccccc2OCc2ccc(F)cc2)c(OC)c1	-9	-11	1.4	2.5	nt	nt	i	0.72	-2.3
N#CC1(c2cccc(Br)c2)C(=O)Nc2ccccc21 (centres undefined)	-2	-1	-2.3	3.7	nt	nt	i	nt	-1.9
O=C(O)Cn1cc(C(=O)C2CC2)c2ccccc21	nt	nt	nt	nt	0%	9	nt	0.73	-2.7
CCN1CCN(CC(=O)N2CCCC(C(=O)c3ccc(Oc4ccccc4)cc3)C2)CC1 (centres undefined)	-7	-3	9.2	5.4	2%	0	i	0.67	3.3

A portion of the library; the hit share may differ from the screen's.
